# Mtb hypoxia inh – reduces hypoxia-regulated biosensor signal in M. tuberculosis. M. tuberculosis hypoxia-regulated fluorescent reporter, fluorescence. fluorescence inhibition, % (no concentration beside the values). 0.1% of 300,000 active;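 active means 35 to 45% if threefold the growth effect, above 45% if 1.5-fold the growth effect; inactive means the rest, general growth blockers included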;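 further: wells of about 50 µL received 100 nL stock; 0% = vehicle wells and 100% = reference inhibitor wells; whole bacteria with a GFP reporter of the hypoxia response; strong numbers were not always called active; many hits fall short of the cut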
# PrP 5UTR inh – inhibition of PrP 5' UTR reporter expression. cell-based PrP 5' UTR mRNA reporter, plate reader. inhibition, % (no concentration beside the values). 0.35% of 340,000 active;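 active means every replicate at 50% or more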;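 further: 0 = median of the neutral control wells; tested in H4 reporter cells; numbers are from one replicate; inactives centre near -14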
# Bead autofluor – compound fluorescence in toxin protease inhibitor counterscreen. compound autofluorescence counterscreen, microsphere flow cytometry; stronger effect = higher value. fluorescence intensity (test concentration not listed). 3.1% of 360,000 active;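 active means at least 3 SD above the mean of all compounds, about 16000 in these data; inconclusive means too few beads counted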;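 further: 100 nL of 1 mM stock went into each well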
# Sa ugtP lethal – kills S. aureus RN4220 lacking UgtP; S. aureus RN4220 ugtP deletion, OD600 growth, 16 h; some inactives read as strong as hits; growth inhibition, % (concentration not given with the values); 0.54% of 330,000 active; AID 1259309;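 active means z-score under -3 and OD600 up to 0.15 on both plates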;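 further: plate controls were untreated wells for no effect and antibiotic for full effect; wells of about 80 µL received 100 nL stock; the first replicate is given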
# BJeLR lethal – BJeLR cell viability loss; BJeLR (HRASV12) viability, CellTiter-Glo ATP luminescence, 48 h; reference of the scale not given here; inhibition, % (test concentration not listed); 0.17% of 300,000 active;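 active means replicate mean above 50%; inconclusive means above 50% but judged a plate artefact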;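 further: 50 nL library stock added to about 25 µL; numbers are from one replicate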
# Sa RN4220 lethal – kills Staphylococcus aureus RN4220; S. aureus RN4220 growth, OD600, 16 h; inhibition, % (test concentration not listed); 0.33% of 330,000 active; AID 1259311;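 active means z-score of -3 or lower and OD600 up to 0.18 on both plates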;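 further: plate controls were untreated cells for no effect and reference antibiotic for full effect; stock transfer was 100 nL into about 80 µL; one replicate is shown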
# Mtb hypoxia inh growth – further read-out of Mtb hypoxia inh, marked with its call; growth inhibition, %; measured here: M. tuberculosis growth (absorbance);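 0% = vehicle and 100% = reference antibiotic; read after six days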
# Numbers without * were called inactive; ? = inconclusive; nt = not tested or not shown.
SMILES,Mtb hypoxia inh,Mtb hypoxia inh growth,PrP 5UTR inh,Bead autofluor,Sa ugtP lethal,BJeLR lethal,Sa RN4220 lethal
COCCCNC(=O)C(C#N)c1nc2ccccc2nc1N1CCCC1 (stereo not drawn),2,16,5,?,-4,-4,-9.9
COc1ccc(-n2c(=O)/c(=C\c3cccs3)s/c2=C(/C#N)C(=O)NCCN2CCOCC2)cc1,nt,nt,0,4352,nt,1,nt
Cc1ccc2sc(NNC(=O)C3COc4ccccc4O3)nc2c1C (stereo not drawn),1,11,-10,5192,3,nt,-0.8
COC(=O)c1cccc(NC(=O)Cc2ccccc2[N+](=O)[O-])c1C,6,1,-25,2653,6,-1,5.0
Cc1c(CCC(=O)NCCCC(=O)O)c(=O)oc2cc3oc4c(c3cc12)CCCC4,-6,13,9,3928,-10,1,4.7
C=CCOc1ccc(C=NNC(N)=S)cc1,nt,nt,nt,nt,-4,nt,8.3
CCOC(=O)c1c(C)oc2cc(Br)c(OCC(N)=O)cc12,nt,nt,-26,4656,4,9,-0.9
Cn1c(NC(=O)Cc2cccs2)cc(=O)n(C)c1=O,0,1,-26,6003,3,12,2.4
O=C(Nc1cnn(Cc2ccc(Cl)cc2)c1)c1cnccn1,3,6,-26,19189*,1,-10,-0.2
Cc1ccc(CN(C(=O)COc2ccc(C)c(C)c2)C2CCS(=O)(=O)C2)o1 (stereo not drawn),9,6,-21,5137,7,1,3.8
CC1CCCCN1CCNC(=O)CC1Oc2ccccc2NC1=O (stereo not drawn),nt,nt,-15,5340,5,10,3.5
CSc1ccc(S(=O)(=O)NCC(=O)OCC(=O)NCc2cccs2)cc1[N+](=O)[O-],3,-5,-12,?,6,1,4.5
O=C(Nc1cccc(OCC(=O)N2CCOCC2)c1)c1cccc([N+](=O)[O-])c1,9,6,-6,4115,5,-11,3.1
O=S1(=O)N=C(N/N=C/c2ccc(Br)o2)c2ccccc21,nt,nt,-3,4716,nt,-3,nt
CCOc1ccc(N2C(=O)/C(=C\c3ccc(OC)c(O)c3)S(=O)(=O)C2c2cccc([N+](=O)[O-])c2)cc1 (stereo not drawn),7,-2,-8,4657,4,nt,2.4
Cc1ccc(/C=N/n2cc(-c3ccccc3)[nH]c2=S)s1,nt,nt,-42,4395,nt,4,nt
FC(F)(F)c1ccc(NCCc2ccccc2)nc1,1,1,-27,3568,10,0,-0.9
COc1ccc(C2/C(=C(\O)c3ccc4c(c3)OCCO4)C(=O)C(=O)N2Cc2cccnc2)cc1OC (stereo not drawn),7,1,-36,5677,6,-1,3.3
C=CCn1c(COc2ccccc2F)nnc1SCCN1C(=O)c2ccccc2C1=O,3,0,-22,7794,-4,1,6.5
CC(C)(C)N(Cc1ccccc1)C(=O)COC(=O)CN1C(=O)NC2(CCCC2)C1=O,9,3,-15,6589,7,0,4.2
CC(C)CNC(=S)N(Cc1ccco1)Cc1cc2cc3c(cc2[nH]c1=O)OCCO3,10,12,-18,2386,9,-2,4.4
CC12CCC(C/C1=N/O)C2(C)C (stereo not drawn),nt,nt,-25,5106,nt,9,nt
COc1ccc(OC)c(CN2CCN(C(=O)c3cc(S(=O)(=O)Nc4ccccc4OC)ccc3C)CC2)c1,-6,5,-9,5655,-6,10,1.5
Cc1[nH]c2ccccc2c1C=NNc1ccccc1[N+](=O)[O-],8,-2,nt,nt,-11,nt,68
CS(=O)(=O)Nc1ccc(-c2cn3cccnc3n2)cc1,11,-1,-4,3702,3,4,2.3
Oc1ccccc1C=NNc1cc(N2CCCC2)nc(N2CCCC2)n1,-16,12,nt,nt,-9,nt,7.8
CCC(C)(C(=O)NC1CCCCC1)N(C)C(=O)c1ccccn1 (stereo not drawn),nt,nt,-23,4925,1,1,-3.9
CC(C)CNS(=O)(=O)c1ccc(CCC(=O)N2CCOCC2)cc1,nt,nt,-21,4657,-3,10,-0.1
Cn1ncc(C#N)c1NC(=O)c1nn2cccnc2c1Cl,-6,-8,5,2365,19,-6,25
Cc1cc(C)c(S(=O)(=O)N2CCN(C(=O)N3CCCCC3)CC2)c(C)c1,-2,3,-6,3144,2,1,-1.4
Cn1cc([N+](=O)[O-])c(C(=O)Nc2ccc(C(=O)N3CCCCC3)cc2)n1,-6,6,-25,2492,7,-5,-1.6
Cc1sc(NN=Cc2ccco2)nc1-c1ccccc1,0,1,nt,nt,10,nt,-8.5
CCOc1cc(C2NC(=O)NC(O)(C(F)(F)F)C2C(=O)c2ccccc2)ccc1OC (stereo not drawn),2,3,-12,?,11,2,7.6
COc1ccc(/C=N/NC(=O)c2cc3c(OC)ccc(OC)c3[nH]2)cc1O,nt,nt,60*,3738,nt,35,nt
C=CCc1ccc(OCC(O)CN2CCCCC2C)c(OC)c1 (stereo not drawn),nt,nt,-19,3329,-1,9,0.0
Clc1ccc(CSc2snnc2-c2ccccc2)cc1,23,3,-13,?,10,-5,-0.3
CN(C)/C=C\C(=C/C(=O)C(F)(F)F)Nc1ccccc1Oc1ccccc1,-2,4,-37,3575,7,1,-0.2
CCn1cc(C(=O)NCCCN(C)C)c(=O)c2cc(F)c(N3CCN(C)CC3)cc21,nt,nt,-13,4809,19,-4,4.1
O=C(c1ccccc1)c1ncc[nH]1,-3,4,-31,3672,8,1,4.1
COc1ccc(N2C(=O)/C(=C/c3ccc([N+](=O)[O-])cc3)N=C2C)cc1,-7,5,-32,4816,2,0,2.4

# Three entries from above in another layout.
smiles | Mtb hypoxia inh | Mtb hypoxia inh growth | PrP 5UTR inh | Bead autofluor | Sa ugtP lethal | BJeLR lethal | Sa RN4220 lethal
Cn1c(NC(=O)Cc2cccs2)cc(=O)n(C)c1=O | 0 | 1 | -26 | 6003 | 3 | 12 | 2.4
O=C(Nc1cnn(Cc2ccc(Cl)cc2)c1)c1cnccn1 | 3 | 6 | -26 | 19189* | 1 | -10 | -0.2
Cc1ccc(CN(C(=O)COc2ccc(C)c(C)c2)C2CCS(=O)(=O)C2)o1 (stereo not drawn) | 9 | 6 | -21 | 5137 | 7 | 1 | 3.8

# Looked up above:
# BJeLR lethal result of COc1ccc(/C=N/NC(=O)c2cc3c(OC)ccc(OC)c3[nH]2)cc1O : 35
# Sa RN4220 lethal result of CCn1cc(C(=O)NCCCN(C)C)c(=O)c2cc(F)c(N3CCN(C)CC3)cc21 : 4.1
# Sa RN4220 lethal result of COc1ccc(N2C(=O)/C(=C/c3ccc([N+](=O)[O-])cc3)N=C2C)cc1 : 2.4
# Sa RN4220 lethal result of CN(C)/C=C\C(=C/C(=O)C(F)(F)F)Nc1ccccc1Oc1ccccc1 : -0.2
# Sa ugtP lethal result of Cc1sc(NN=Cc2ccco2)nc1-c1ccccc1 : 10

# (further entries)
SMILES,Mtb hypoxia inh,Mtb hypoxia inh growth,PrP 5UTR inh,Bead autofluor,Sa ugtP lethal,BJeLR lethal,Sa RN4220 lethal
CCOC(=O)C1=C(c2ccccc2)ON(C)C1c1ccccc1 (stereo not drawn),9,5,-27,2182,3,10,5.5
CCOC(=O)n1c(=O)oc2ccccc21,3,2,-13,8686,-3,2,3.4
COc1nc(-c2ccccc2)cc(C(F)(F)F)n1,3,7,-21,8357,-3,-5,1.2
COc1ccc(CCn2c(O)c(C=Nc3ccccc3F)c(=O)[nH]c2=O)cc1OC,5,-1,-33,4513,6,1,-0.2
CCCOc1ccc(-c2nnn(CC(=O)OCC)n2)cc1,5,7,-19,22991*,0,-3,6.2
Cc1noc(/C=C/c2cccs2)c1S(=O)(=O)N1CCC(C(=O)NCCCN2CCCC(C)C2)CC1 (stereo not drawn),nt,nt,-24,5119,nt,0,nt
Cc1c(C(=O)NCCCN2CCOCC2)oc2ccc(S(=O)(=O)N3CCOCC3)cc12,11,-2,-11,3927,3,9,7.6
Cc1cccc2cc(C(c3nnnn3Cc3ccccc3)N3CCCc4ccccc43)c(=O)[nH]c12 (stereo not drawn),3,5,-6,23808*,-6,19,12
O=C1CN(C(=O)CNC(=O)c2ccc(Cl)cc2Cl)CCN1,5,7,-26,3515,12,-8,2.5
Cc1occc1C(=O)Nc1cc(C(C)(C)C)on1,10,5,-49,11311,3,37,3.9
Nc1nc2nccc(-c3ccccn3)n2n1,9,2,-15,3203,3,2,4.1
O=C(O)c1ccc(C=NNC(=S)NCc2ccccc2)cc1,6,8,nt,nt,3,nt,3.0
O=C(CCS(=O)(=O)c1cccc2nsnc12)NC1CCCCC1,-3,3,3,7250,1,-15,0.8
O=C(Nc1ncccc1O)c1ccc(OCC2CCCO2)cc1 (stereo not drawn),12,6,-13,5477,4,10,3.7
CCOC(=O)c1[nH]c(C)c(C(=O)NC2CCCC2)c1C,nt,nt,-29,5365,12,-13,6.6
CCCC(=O)Nc1ccc(S(=O)(=O)Nc2cc(C)nc(C)n2)cc1,15,13,10,4079,4,5,3.4
CCCCn1c(N)c(N(CCOC)C(=O)CCCn2c(=O)oc3ccccc32)c(=O)[nH]c1=O,-3,1,-16,?,3,nt,1.1
Cc1c(Cl)cccc1-n1c(SCC(=O)N2CCC(C(=O)O)CC2)nnc1-c1ccncc1,8,1,-25,4200,3,6,5.3
Cn1c(-c2ccc3c(c2)OCO3)cnc1NCc1ccc(Cl)cc1,-1,9,-16,21164*,-21,5,4.2
O=C(Nc1ccc(CN2CCOCC2)cc1)c1ccc(Br)o1,2,-7,-85,3182,4,2,5.4
Cc1ccc(C=Nn2c(C)nnc2C)cc1,-5,-2,nt,nt,-4,nt,7.5
CCCCC(C(=O)NC(C)c1ccccc1)C(=O)NC(C)c1ccccc1 (stereo not drawn),9,1,-9,3796,16,-8,1.5
O=C(Nc1ccc(S(=O)(=O)N2CCc3ccccc32)cc1)c1ccc2c(c1)OCO2,-2,-3,-23,11552,-19,-3,-1.8
COc1ccc(-n2c(C)cc(C(=O)NC3CCCCC3)c2C)cc1,11,6,-51,12081,-17,3,-1.9
Cc1ccc(C(=O)NN=C2CCSC2)cc1[N+](=O)[O-],0,4,nt,nt,4,nt,0.7
CCN(c1ccccc1)S(=O)(=O)c1ccc(OC)c(NC(=O)C2CCC2)c1,-2,0,-7,6469,12,nt,11
CCOC(=O)NC(=O)COC(=O)CNC(=O)c1cccc(OC)c1,13,-6,-21,3793,-72,-31,8.0
O=C(COC(=O)c1ccc2ncsc2c1)Nc1cccc(Cl)c1,5,4,-9,2859,-6,nt,2.0

# In a second layout: results already given.
# Below each compound – Mtb hypoxia inh | Mtb hypoxia inh growth | PrP 5UTR inh | Bead autofluor | Sa ugtP lethal | BJeLR lethal | Sa RN4220 lethal
CCCCC(C(=O)NC(C)c1ccccc1)C(=O)NC(C)c1ccccc1 (stereo not drawn)
  9 | 1 | -9 | 3796 | 16 | -8 | 1.5
O=C(Nc1ccc(S(=O)(=O)N2CCc3ccccc32)cc1)c1ccc2c(c1)OCO2
  -2 | -3 | -23 | 11552 | -19 | -3 | -1.8
COc1ccc(-n2c(C)cc(C(=O)NC3CCCCC3)c2C)cc1
  11 | 6 | -51 | 12081 | -17 | 3 | -1.9
Cc1ccc(C(=O)NN=C2CCSC2)cc1[N+](=O)[O-]
  0 | 4 | nt | nt | 4 | nt | 0.7
CCN(c1ccccc1)S(=O)(=O)c1ccc(OC)c(NC(=O)C2CCC2)c1
  -2 | 0 | -7 | 6469 | 12 | nt | 11
CCOC(=O)NC(=O)COC(=O)CNC(=O)c1cccc(OC)c1
  13 | -6 | -21 | 3793 | -72 | -31 | 8.0
O=C(COC(=O)c1ccc2ncsc2c1)Nc1cccc(Cl)c1
  5 | 4 | -9 | 2859 | -6 | nt | 2.0
